# Sa growth inh: S. aureus growth inhibition at 42 and 30 °C, primary screen, LtaS inhibitor project, RN4220, two temperatures; OD600, 20 h, 42 °C; stronger effect = lower value; relative growth, % (no concentration beside the values); 170,000 compounds, 0.53% hits;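 active means growth at 42 °C up to 50% and 20 or more points under that at 30 °C, or under 10% at both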;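 further: 300 nL library stock went into each well; scaled to the means of positive and negative controls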
# GIV-Gai inh: inhibitors of GIV peptide binding to Galpha-i3, primary screen, biochemical, fluorescence polarization, FITC-GIV GBA peptide, rat Galphai3; 210,000 compounds, 0.42% hits; percent of control (FP), % (concentration not given with the values); 90 min; stronger effect = lower value; scaled: aluminum fluoride 0%, vehicle 100%; Guanine nucleotide-binding protein G(i) subunit alpha-3 (Rattus norvegicus), P08753; AID 1224905, 2016;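 active means replicate mean at 85% of control or lower, very high polarization wells dropped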;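 further: wells of about 15 µL received 100 nL stock; the first replicate is given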
# Target sequence (P08753 whole entry, looked up): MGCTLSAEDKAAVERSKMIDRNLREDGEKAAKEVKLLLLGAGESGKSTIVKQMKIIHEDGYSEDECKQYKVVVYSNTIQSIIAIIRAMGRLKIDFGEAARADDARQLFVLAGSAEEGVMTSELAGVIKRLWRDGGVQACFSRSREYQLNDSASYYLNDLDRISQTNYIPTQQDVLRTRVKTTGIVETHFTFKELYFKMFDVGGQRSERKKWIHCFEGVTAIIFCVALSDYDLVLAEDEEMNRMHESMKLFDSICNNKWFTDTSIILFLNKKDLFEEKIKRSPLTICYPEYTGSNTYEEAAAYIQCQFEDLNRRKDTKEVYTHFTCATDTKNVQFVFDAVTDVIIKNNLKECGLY
# HCMV NEC inh: inhibitors of HCMV UL50-UL53 interaction, biochemical, HTRF; 190,000 compounds, 0.15% hits; normalized percent inhibition; inhibition, % (no concentration beside the values); HCMV UL50-UL53 nuclear egress complex (human cytomegalovirus);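 active means both replicates at 50% or more, plus weaker picks with an unusually low signal ratio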;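 further: stock transfer was 100 nL into about 20 µL; 0% = negative control wells and 100% = wells with untagged competitor protein; inactives centre near -12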
# Sa growth inh second temp: second read-out of Sa growth inh, no call of its own (marks repeat the call); relative growth, %; measured here: growth at 30 °C;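 optical density after 20 h as mean of two plates; 100% = untreated growth and lower means inhibition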
# * hit, by the source's call; . = no result given; & = joins results of further samples.
# The first 3 records, to show the layout:
cpd	mol	Sa growth inh	Sa growth inh second temp	GIV-Gai inh	HCMV NEC inh
1	COc1ccc(C2C(=O)N(C3CCCCC3)CC(=O)N2CCc2ccc(OC)c(OC)c2)cc1 (stereo not drawn)	104	81	103	.
2	CCCN(CCC)C(=O)c1ccc(Nc2ccnc(-c3cccc(C)c3)n2)cc1	.	.	99	-8
3	COCc1cc(C)nc(Nc2ccccc2OC)c1C#N	99	87	107	-6

# All compounds of this part (from the top)
cpd	mol	Sa growth inh	Sa growth inh second temp	GIV-Gai inh	HCMV NEC inh
1	COc1ccc(C2C(=O)N(C3CCCCC3)CC(=O)N2CCc2ccc(OC)c(OC)c2)cc1 (stereo not drawn)	104	81	103	.
2	CCCN(CCC)C(=O)c1ccc(Nc2ccnc(-c3cccc(C)c3)n2)cc1	.	.	99	-8
3	COCc1cc(C)nc(Nc2ccccc2OC)c1C#N	99	87	107	-6
4	Cc1cc2oc(=O)cc(CN3CCCc4ccccc43)c2cc1C	94	92	.	-19
5	Cc1ccc(-c2nnn(CC(=O)N(CC(=O)NCC3CCCO3)C3CCN(Cc4ccccc4)CC3)n2)o1 (stereo not drawn)	133	104	104	-17
6	O=c1c2ccccc2n2c(SCc3ccccc3)nnc2n1Cc1ccc(F)cc1	.	.	100	-7
7	CCN1CCN(C(=O)c2sc3ncnc(N4CCCCC4C)c3c2C)CC1 (stereo not drawn)	.	.	108	-11
8	Cc1ccc(C)c2[nH]c(=O)c(CN(CCN3CCCC3)C(=O)Nc3cccc(Cl)c3)cc12	113	69	101	-18
9	CCNC(=O)c1ccc(C23CC4CC(CC(C4)C2)C3)o1	108	100	109	0
10	CCCCN1C(=O)CN(C2CCCCCC2)C(=O)C1c1ccc(OC(C)C)c(OC)c1 (stereo not drawn)	111	94	107	.
11	O=C(O)CCN1C(=O)SC(Nc2cccc3ccccc23)C1=O (stereo not drawn)	104	74	97	-28
12	Cc1cc(C)n2c(Nc3c(C)cccc3C)c(-c3ccc(Cl)s3)nc2n1	79	90	110	.
13	Cn1c(=O)oc2cc(S(=O)(=O)CCC(=O)NCc3ccc(Cl)cc3)ccc21	87	85	105	.
14	O=C(CCSCCc1ccncc1)N1CCOCC1	105	92	104	-19
15	Cc1cc(N2CCOCC2)nc(SCc2cc3c(cc2Cl)OCO3)n1	92	79	97	-16
16	CC(=O)Oc1ccc(-c2ccccc2)cc1	100	97	101	.
17	CCOc1ccccc1NC(=O)COc1ccccc1F	95	77	.	-33
18	O=C(CN1CCN(Cc2ccc(F)cc2Cl)CC1)NCc1ccccc1	96	95	97	-31
19	CC(C)(CNC(=O)C1c2ccccc2-c2ccccc21)N1CCOCC1	109	98	.	-12
20	CCOC(=O)c1c(NC(=O)c2ccc3c(c2)CC(c2ccc(C)cc2)OC3=O)sc(C)c1C (stereo not drawn)	.	.	110	8
21	CC(C)Oc1ccc(C2CC(=O)Nc3sc(C(=O)c4ccco4)c(N)c32)cc1 (stereo not drawn)	90	78	106	-43
22	C=CCc1cccc2cc(-c3nc4ccc(C(=O)O)cc4[nH]3)c(=O)oc12	130	88	102	.
23	c1cc(-c2nc3cc4sc(-c5ccn[nH]5)nc4cc3s2)[nH]n1	81	86	98	-18
24	COc1ccc(OCC(=O)Nc2ccc3c(c2)nc(CCNC(=O)c2ccco2)n3C)cc1	106	104	101	6
25	O=S(=O)(Nc1ccc(-c2ccc(N3CCOCC3)nn2)cc1)c1ccc2c(c1)CCCC2	.	.	102	-1
26	CCOc1cc(-c2nnc(SCC(=O)NC3CCCCC3)nc2-c2ccc(OC)c(OCC)c2)ccc1OC	89	85	103	.
27	NS(=O)(=O)c1ccc(NC(=O)CN2CC(=O)NC(=O)C2)cc1	98	105	102	1
28	Cc1cccc(N2CCN(C(=O)CN3C(=O)CC(C)(C)S(=O)(=O)c4ccccc43)CC2C)c1 (stereo not drawn)	.	.	101	-10
29	Cc1nc(C(F)(F)F)ccc1C(=O)Sc1ccccc1	95	90	104	.
30	C/C=C/c1ccc(OCC(=O)OC(C)C(N)=O)c(OC)c1 (stereo not drawn)	71	89	.	-15
31	Cc1cc(C)c(C)c(CN2C(=O)CC(C)Nc3ccccc32)c1C (stereo not drawn)	.	.	99	-28
32	Cc1cccc(C)c1NC(=O)C1(N(C)C(=O)Cc2cccs2)CCCCC1	102	92	96	-10
33	Nc1c2c(nn1-c1ccccc1)CCC2	85	97	.	-16
34	COc1ccc(C(=O)CCC(=O)O)c(OC)c1	79	85	102	-15
35	CC(=O)N1c2c(cc(Br)cc2S(=O)(=O)Nc2ccc(OC(F)(F)F)cc2)CC1C (stereo not drawn)	105	78	101	-3
36	COc1ccccc1C1=NS(=O)(=O)N(C)C(C(=O)Nc2ccn(Cc3ccccc3C)n2)=C1	.	.	98	-32
37	O=C(Nc1ccc(-c2nc3ccccc3s2)cc1)c1cccc(F)c1	90	101	105	.
38	CCCC(=O)N(C)c1nnc(-c2ccc(F)cc2)s1	102	70	101	-7
39	COc1ccccc1CNS(=O)(=O)c1cccc2cccnc12	87	80	97	-18
40	CCc1nnc(NC(=O)C2CCCO2)s1 (stereo not drawn)	97	92	105	-2
41	CCn1c(=O)c(C(=O)Nc2nc(C)cc(C)n2)c(O)c2ccccc21	.	.	108	-8
42	C=CCNS(=O)(=O)c1ccc(SC)cc1	96	97	104	4
43	COc1ccc(C2=NN(C(=O)CSc3n[nH]c(-c4ccc(Br)cc4)n3)C(c3ccco3)C2)cc1 (stereo not drawn)	96	98	.	-20
44	COc1ccc(CN2CCCN(CC(=O)Nc3ccc(Br)cc3F)S2(=O)=O)cc1	92	83	101	.
45	Cc1cc(C)c(Cn2c(=O)n(NC(=O)c3ccccc3)c(=O)c3sccc32)c(C)c1	102	94	108	.
46	O=C(Nc1c[nH]c2cc(Cl)ccc2c1=O)N1CCCCC1	87	105	104	-12
47	O=C(CSc1nc(-c2ccccc2)[nH]c1-c1ccc(F)cc1)NCC1CCCO1 (stereo not drawn)	.	.	104	8
48	O=C(NCc1cccnc1)c1[nH]c2ccccc2c1Sc1ccc(Cl)cc1	.	.	102	-22
49	CCOc1cc(C(=O)N2CCC(c3ccncc3)CC2)cc(OCC)c1OCC	87	88	98	.
50	COC(=O)CN1C(=O)CSc2ccc(S(=O)(=O)NC3CCCC3)cc21	.	.	111	6
51	N#CC[S+](O)c1ccccc1 (stereo not drawn)	88	94	101	-11
52	CC(C)c1ccc(O)c(NC(=O)c2ccc3c(c2)OCCO3)c1	.	.	102	-15
53	CS(=O)(=O)N1CCc2cc(C(=O)N3CCN(c4ccc(F)cc4)CC3)ccc21	102	92	100	4
54	CCOC(=O)c1ccc2c(c1)nnn2C	101	81	99	-9
55	c1ccc(OCCSc2nc3ccccc3n2CCOc2ccccc2)cc1	117	90	97	.
56	C=CCSc1nc2ccccc2n1C(=O)c1ccc2c(c1)OCO2	103	80	100	-11

# Remaining list, next part
cpd	mol	Sa growth inh	Sa growth inh second temp	GIV-Gai inh	HCMV NEC inh
57	O=c1c(Cc2ccccc2OCc2ccccc2)coc2ccccc12	91	91	103	5
58	COc1cccc(NC(=O)Nc2c[nH]c(=O)[nH]c2=O)c1	.	.	98	-16
59	O=C(NC1CCN(Cc2ccccc2)CC1)c1ccccc1	97	89	103	-8
60	CC(=O)c1ccc(NC(=O)c2cn3c4c(ccc(Cl)c4c2=O)OC(C)C3)cc1 (stereo not drawn)	103	96	106	.
61	CCN1CCN(C(=O)CCc2nc3ccccc3n2-c2ccccc2)CC1	105	87	.	-13
62	O=C(O)CC(O)(c1ccccc1)C(F)(F)F (stereo not drawn)	105	86	.	-25
63	Oc1ccc(Cc2ccc(O)c3ncccc23)c2cccnc12	98	75	99	-6
64	O=S(=O)(c1ccc2nc(Nc3ccc(Br)cc3F)ccc2c1)N1CCCC1	86	97	112	.
65	COCC(=O)NCc1nc2cccnc2n1Cc1ccc(F)cc1	114	87	107&105	.
66	COc1cccc(CCNC(=O)Cn2c(=O)c(=O)n(C)c3ccccc32)c1	.	.	100	-14
67	COc1ccc(CCC(=O)NCC#N)cc1	93	104	100	16
68	CCC(C)C1NC(=O)NC1=O (stereo not drawn)	104	98	107	.
69	COc1ccc(N2CCN(C(=O)c3cc4c(=O)n(Cc5ccco5)ccc4nc3C)CC2)cc1	95	97	99	.
70	Cc1nnc(CSc2nnc(COc3ccccc3)o2)o1	84	82	102	-34
71	Cc1ccn(CCCNC(=O)c2cn(C(C)c3ccccc3F)nn2)n1 (stereo not drawn)	104	85	.	-9
72	CN(C)CC(C)(C)NS(=O)(=O)c1ccc(Cl)cc1	99	95	.	-19

# Next section (2 carried over from the part before).
cpd	mol	Sa growth inh	Sa growth inh second temp	GIV-Gai inh	HCMV NEC inh
71	Cc1ccn(CCCNC(=O)c2cn(C(C)c3ccccc3F)nn2)n1 (stereo not drawn)	104	85	.	-9
72	CN(C)CC(C)(C)NS(=O)(=O)c1ccc(Cl)cc1	99	95	.	-19
73	COc1ccc(C(=O)CSc2nnc(-c3ccoc3C)n2CC(C)C)cc1	103	67	102	-5
74	Cc1noc(C)c1CCC(=O)N1CCC(c2c[nH]c3ccccc23)(c2c[nH]c3ccccc23)CC1	110	83	108	3
75	O=S(=O)(c1cccs1)N1CCN(CCO)CC1	104	91	.	-17
76	CC(C)c1ccccc1OCC(=O)NC(C)C1CCCO1 (stereo not drawn)	117	81	102	-31
77	COc1ccc(-n2nnnc2SCC(=O)N2CCCCC2C)cc1 (stereo not drawn)	110	82	105	-25
78	CCCn1c2ccccc2c2ccccc21	101	104	100	.
79	CC1(C)C2CCC13CS(=O)(=O)N1OC13C2 (stereo not drawn)	98	92	104	-20
80	O=S(=O)(c1ccc(F)c(F)c1)N1CCC2(CC1)Nc1ccc(Cl)cc1-n1cccc12	.	.	112	-8
81	CC(C)CC(=O)N1CCN(Cc2ccc(Cl)cc2)CC1	89	72	104	.
82	COc1ccc(N2CCN(C(=O)c3cc4c(s3)-c3c(C)cccc3OC4)CC2)cc1	108	88	98	-23
83	CCCOc1ccc(=O)n(C)n1	96	90	106	.
84	N#CC(C#N)=C(N)COc1ccc(F)cc1	.	.	103	-2
85	CCN(CC)C(=S)NC(=O)C12CC3CC(CC(C3)C1)C2	132	103	107	-4
86	CCOC(=O)c1c(-c2ccc(C)cc2)csc1NC(=O)Cc1coc2cc(C)ccc12	.	.	102	-16
87	CN(c1ccccc1)S(=O)(=O)c1ccccc1C(=O)O	86	93	.	-6
88	Cc1ccc2[nH]c3c(=O)n(CCC(=O)NCCc4c[nH]c5ccccc45)cnc3c2c1	.	.	105	-28
89	Cc1nc2nc(NCc3ccccc3)[nH]n2c(=O)c1CCC(=O)NC(C)C	.	.	98	-19
90	c1ccc2[nH]c(SCCCN3CCCCC3)nc2c1	87	86	95	.
91	Cc1ccc2c(CN3CCCCCC3)cc(=O)oc2c1	91	87	107	-14
92	Cc1ccc(CSCc2ccc(C(=O)NCCC(C)C)o2)cc1	108	79	98	.
93	O=C(NC1CCCC1)c1cc(C2CC2)on1	95	86	99	-9
94	CC1(C(=Nc2ccc(Cl)cc2)C(=O)Nc2ccc(Cl)cc2)OC(=O)C[n+]2ccccc21 (stereo not drawn)	92	66	112	.
95	CCOC(=O)c1c(NC(=O)c2ccc(N3C(=O)C4C5C=CC(C5)C4C3=O)cc2)sc2c1CC(C)CC2 (stereo not drawn)	.	.	107	-10
96	COc1ccc(NC(=O)C(NC(=O)c2ccc(=O)[nH]c2)c2ccc(C)cc2)cc1 (stereo not drawn)	108	84	100	.
97	Cc1ccc(-c2oc3ncnc(N)c3c2-c2ccc(C)cc2)cc1	88	91	101	2
98	Cc1cc(C(=O)OCC(=O)N(C)C2CCCCC2)c(C)o1	118	91	.	7
99	CC1=CCP(=O)(c2ccccc2)C1 (stereo not drawn)	121	108	.	20
100	CCOc1cccc(OCCOc2ccc(F)cc2)c1	73	103	101	5
101	CCN(Cc1nc(-c2ccc(OC)cc2)no1)C(=O)/C=C/c1ccc(OC)c(OC)c1	106	90	103	-44
102	Cc1ccc(CNC(=O)C2CCN(c3nccn4nc(-c5ccc(Cl)cc5)cc34)CC2)cc1	.	.	101	-9
103	O=C(COC(=O)C1CC2CCCC(C1)C2=O)Nc1cccc2nsnc12 (stereo not drawn)	75	96	.	-86
104	Cc1ccc(Cn2cc(S(=O)(=O)c3ccccc3)c(=O)c3cc(F)c(N4CCOCC4)cc32)cc1	103	84	104	.

# Results in sequence from above:
# Sa growth inh, nos. 97 to 104 → 88, 118, 121, 73, 106, ., 75, 103
# GIV-Gai inh, nos. 97 to 104 → 101, ., ., 101, 103, 101, ., 104

# Next compounds.
cpd	mol	Sa growth inh	Sa growth inh second temp	GIV-Gai inh	HCMV NEC inh
105	O=C(CSc1nc2ccccc2n2cnnc12)NC1CCCC1	.	.	110	-33
106	COc1ccc(S(=O)(=O)c2c(Nc3ccc(C)cc3)sc(C(=O)c3ccc4c(c3)OCO4)c2N)cc1	134	115	112	.
107	Cc1nnsc1-c1nnc(-c2ccc(C(F)(F)F)cc2)o1	114	98	104	3
108	NCc1ccc(C(=O)O)o1	92	93	104	-22
109	O=C(NCCN1CCOCC1)c1nn2c(c1Cl)NC(c1ccc(Br)cc1)CC2C(F)(F)F (stereo not drawn)	.	.	90	-13

# Bioassay records: PubChem, ICCB-Longwood Screening Facility, Harvard Medical School

# Compounds as they come. Share with any hit: about 0.85%.
